# GLA inh pH 4.5 – inhibitors of human alpha-galactosidase A at pH 4.5; purified enzyme, 4-MU-alpha-Gal fluorescence, pH 4.5; activity change, negative = inhibition, % at 105 µM; 230,000 tested, under 10 active; inconclusive = small, poorly fitted or top-dose-only inhibition, or a rising curve; inactive = flat fitted curve, though single readings scatter; no compound was filed as active;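 further: 0% = full activity with enzyme and -100% = basal without enzyme; dose as in the result columns while the protocol names 77 µM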
# Rango release inh – inhibition of RanGTP-driven Rango-importin beta dissociation; Biochemical FRET Rango-importin beta, RanGTP-induced dissociation; Potency, µM (doses to about 46.1 µM), for inactives: at the highest dose activity change, negative = inhibition; 340,000 compounds, 0.071% hits; active means falling FRET ratio curve, often poorly fitted, with flat reads before Ran was added; inconclusive means other falling curves, or compound fluorescence or quenching; inactive means flat or rising ratio curve;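 further: potency means the concentration at half of the fitted maximal effect; % of control where 0% means no effect; nearly all actives have a fitted effect of over 45% in size; -100% = wells without RanGTP and RCC1; the record marks most hits as doubtful in a second field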
#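 Compounds preincubate 5 min with complex of recombinant Rango and importin beta in PBS with 1 mM DTT. Ran (0.6 uM) loaded with 2 mM GTP plus 0.2 uM RCC1 starts dissociation; FRET is recorded 45 min later.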
# miR-21 reporter – raises the signal of a miR-21 reporter. HeLa miR-21 FLuc reporter, luciferase, 48 h. Potency, µM (doses to about 38.3 µM), without a hit: top-dose reporter change, positive = more light. AID 2288. 340,000 tested, under 10 active; active = well fitted rising curve with a large enough effect; inconclusive = small, poorly fitted or top-dose-only effect; inactive = no such curve, though single readings can be large or run the other way;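 further: % of control where 0% means no effect; miR-21 action dims this reporter so a rising signal means less miR-21 action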
#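 Using DMEM plus 10% FBS, HeLa miR-21-FLuc cells are incubated with test compounds (final up to about 40uM) for 48 hours; firefly luciferase signal is then imaged following reagent-mediated lysis.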
# Rango complex inh – Rango-importin beta binding inhibition. Q14974. Rango CFP/YFP FRET sensor + importin beta, 45 min. Potency, µM (doses to about 92.2 µM), without a hit: at the highest dose inhibition of complex formation. 340,000 compounds, 0.031% hits. AID 540263; active = rising FRET ratio curve, often small or poorly fitted; inconclusive = mostly compound fluorescence or quenching in the first reads; inactive = flat curves in all reads;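 further: potency means the concentration at half of the fitted maximal effect; 0% = DMSO wells and 100% = buffer wells lacking importin beta; nearly all actives have a fitted effect of over 15% in size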
# Target sequence (Q14974 whole entry, looked up): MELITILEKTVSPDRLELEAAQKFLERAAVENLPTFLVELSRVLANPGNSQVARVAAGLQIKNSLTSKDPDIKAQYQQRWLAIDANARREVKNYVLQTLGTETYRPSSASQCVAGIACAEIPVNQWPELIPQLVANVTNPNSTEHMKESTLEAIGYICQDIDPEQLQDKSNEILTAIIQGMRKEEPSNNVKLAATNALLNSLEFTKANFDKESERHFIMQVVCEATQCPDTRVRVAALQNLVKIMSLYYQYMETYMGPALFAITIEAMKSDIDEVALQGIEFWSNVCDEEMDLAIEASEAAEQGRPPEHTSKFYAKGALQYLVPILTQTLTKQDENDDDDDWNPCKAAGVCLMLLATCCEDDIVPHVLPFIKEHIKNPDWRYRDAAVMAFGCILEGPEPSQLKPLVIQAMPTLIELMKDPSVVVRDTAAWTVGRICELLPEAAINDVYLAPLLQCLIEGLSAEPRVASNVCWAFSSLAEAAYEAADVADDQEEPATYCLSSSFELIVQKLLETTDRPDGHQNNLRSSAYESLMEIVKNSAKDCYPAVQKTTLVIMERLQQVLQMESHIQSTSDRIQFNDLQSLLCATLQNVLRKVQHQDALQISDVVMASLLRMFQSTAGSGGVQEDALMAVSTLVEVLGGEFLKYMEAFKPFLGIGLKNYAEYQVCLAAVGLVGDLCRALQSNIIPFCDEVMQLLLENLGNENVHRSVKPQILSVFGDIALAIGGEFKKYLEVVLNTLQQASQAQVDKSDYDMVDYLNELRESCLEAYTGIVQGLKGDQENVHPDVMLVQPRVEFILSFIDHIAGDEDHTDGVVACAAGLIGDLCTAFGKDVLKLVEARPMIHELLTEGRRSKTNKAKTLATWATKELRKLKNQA
#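 Inhibition scored from the CFP 486 nm/YFP 530 nm FRET ratio 45 min after adding 0.125 microM importin beta to 50 nM Rango biosensor preincubated 5 min with compound (room temperature, PBS with DTT, Tween-20, BSA). No-importin wells as positive control.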
# * marks the source's active call; other numbers are inactive results; ? = inconclusive; · = no result given; & = joins results of further samples. These rows are one share of the data; count on the stated rates, not on these rows.
GLA inh pH 4.5	Rango release inh	miR-21 reporter	Rango complex inh	Molecule
·	?	·	-2.9%	COc1ccc(NC(=O)CN(C)C(=O)CNC(=O)c2ccc(C)s2)cc1
-3	5%	-1%	0.1%	Cc1cc(=O)oc2cc(OCC(=O)OCC(=O)N(CCC#N)c3ccccc3)ccc12
14	0%	-7%	-2.7%	Cc1ccc(CN(c2ccc(C(=O)N3CCOCC3)cc2)S(C)(=O)=O)cc1
-13	·	-1%	·	CC(C)[C@H](NC(=O)[C@H](CC(=O)O)NC(=O)[C@H](CCCCN)NC(=O)[C@@H](N)CCCN=C(N)N)C(=O)N[C@@H](Cc1ccc(O)cc1)C(=O)O
·	-13%	·	0.5%	Cc1ccc(C)c(NC(=O)[C@@H]2CCCN2S(=O)(=O)c2ccccc2F)c1
·	-29%	-1%	?	O=C(CSC(=S)N1CCOCC1)c1cc(Br)cc(Br)c1O
2	3%	-14%	1.9%	COc1cc(NC(=O)c2cnn3c(C)cc(C)nc23)c(OC)cc1Cl
-1	-2%	-5%	-0.5%	O=S(=O)(c1ccc(-c2ccon2)s1)N1CCN(c2ccncc2)CC1
-7	-6%	0%	-2.9%	CC(=O)c1nc2ccccc2n1CCc1ccccc1
0	4%	-13%	-1.8%	CC(C)c1ccc(NC(=O)CSc2nnc(-c3ccccn3)n2C)cc1
-7	-8%	-6%	7.7%	COc1ccc(/C=C2\CCC(C3CCCC3)C2=O)cc1Cn1cccn1 (stereo not drawn)
-8	-3%	12%	?	COc1ccccc1NS(=O)(=O)c1cccc(NC(=O)c2ccc3ccccc3n2)c1

# Reprinted from the part before: seven entries; new compounds follow.
GLA inh pH 4.5	Rango release inh	miR-21 reporter	Rango complex inh	Molecule
·	-29%	-1%	?	O=C(CSC(=S)N1CCOCC1)c1cc(Br)cc(Br)c1O
2	3%	-14%	1.9%	COc1cc(NC(=O)c2cnn3c(C)cc(C)nc23)c(OC)cc1Cl
-1	-2%	-5%	-0.5%	O=S(=O)(c1ccc(-c2ccon2)s1)N1CCN(c2ccncc2)CC1
-7	-6%	0%	-2.9%	CC(=O)c1nc2ccccc2n1CCc1ccccc1
0	4%	-13%	-1.8%	CC(C)c1ccc(NC(=O)CSc2nnc(-c3ccccn3)n2C)cc1
-7	-8%	-6%	7.7%	COc1ccc(/C=C2\CCC(C3CCCC3)C2=O)cc1Cn1cccn1 (stereo not drawn)
-8	-3%	12%	?	COc1ccccc1NS(=O)(=O)c1cccc(NC(=O)c2ccc3ccccc3n2)c1
6	4%	-3%	-4.3%	COC(=O)c1ccc(S(=O)(=O)N2CCCCC2)o1
·	11%	·	-3.7%	C[C@H](CO)N1C[C@H](C)[C@@H](CN(C)C(=O)Nc2ccc3c(c2)OCO3)Oc2c(NC(=O)Cc3ccccc3)cccc2C1=O
-8	-1%	-8%	0.5%	COc1ccc(-c2nc(-c3ccccn3)ncc2S(C)(=O)=O)cc1
·	-4%	-20%	-1.9%	Cc1nn(Cc2c(F)cccc2Cl)c(=O)c2ccccc12
-9	-11%	-24%	-11%	CCOC(=O)c1ccc(NC(=O)CCc2ccc(CC)o2)cc1
-11	?	3%	?	CN(C)/C=C1\C=C2C(=O)c3ccccc3N2C1=O
-8	-11%	2%	-0.2%	CC1(C)N=C(C(=O)c2ccccc2)N(O)C1(C)O (stereo not drawn)
3	8%	-16%	1.8%	CC(C)COc1ccc(S(=O)(=O)n2cc(F)c(=O)[nH]c2=O)cc1
3	12%	-7%	11%	CN1CCN(C(=O)C2(NC(=O)Nc3ccccc3Cl)CCCCC2)CC1
6	0%	-3%	-0.7%	O=c1cc(C(F)(F)F)nc(-c2ccccc2)[nH]1
·	-17%	·	2.6%	O=C(COC(=O)CSc1ccc(F)cc1)NC1CCCCCC1
2	11%	4%	-0.5%	N#CC(=C1Nc2ccccc2N1)S(=O)(=O)c1ccccc1
1	5%	-1%	0.0%	CC(C)CNC(=O)NC(=O)COC(=O)Cn1cnc2ccccc2c1=O
·	17%	-1%	-2.7%	NS(=O)(=O)c1ccc(CNC(=O)c2cccc(Oc3ccccc3)c2)cc1
-6	?	-4%	?	COC(=O)CN1C(=S)N(c2ccc(OC)cc2)C(=O)/C1=C/c1ccc(N2CCOCC2)cc1
-4	-2%	0%	3.6%	COc1ccc(CCNC(=O)C2CCN(S(=O)(=O)c3cccc4nsnc34)CC2)cc1OC
·	-11%	·	-0.8%	CSCCC(NC(=O)c1ccccc1Cl)C(=O)Nc1ccc(C)c(S(=O)(=O)N2CCOCC2)c1 (stereo not drawn)
3	-3%	-1%	-0.1%	Cc1nn(Cc2ccc(F)cc2)c(C)c1NC(=O)CCCn1nc([N+](=O)[O-])cc1C
5	9%	-3%	-0.8%	CCC1CC2CC(NC(C)=O)C1C2 (stereo not drawn)
-9	-6%	-2%	6.3%	CCC1(C)NC(=O)N(CC(=O)N2N=C(c3ccccc3)CC2c2ccc(OC)cc2)C1=O (stereo not drawn)
·	-5%	·	0.6%	O=C(CSc1nc2ccccc2c(=O)n1-c1ccccc1F)NC1CC1
1	-11%	0%	-4.6%	CC(N=C1NS(=O)(=O)c2ccccc21)c1ccccc1 (stereo not drawn)
6	0%	8%	5.4%	Cc1cc(N)n(-c2ccc(S(N)(=O)=O)cc2[N+](=O)[O-])n1
-7	-18%	-8%	?	O=C1CCCC2=C1C(c1ccc(O)c(Br)c1)C1=C(CCCC1=O)N2c1ccccc1
-23&-12&-7&2	11%&20%&-12%	?	-0.6%&2.5%&3.0%	CN1CCN(CCCN2c3ccccc3Sc3ccc(C(F)(F)F)cc32)CC1
5	-11%	0%	0.9%	CCOC(=O)c1ccc(-n2c(CN3CCOCC3)nc3ccc([N+](=O)[O-])cc3c2=O)cc1
6	8%	-13%	-1.0%	CC1(C)C2CCC(C2)C1(C)NC(=O)CN1CCOCC1 (stereo not drawn)
5	-7%	1%	-3.7%	Cc1[nH]n(-c2ccccc2)c(=O)c1CCOC(=O)c1ccc(C(F)(F)F)cc1
·	5%	-1%	-1.9%	Cc1ccc(-n2ncc3c2CC(C)(C)CC3NC(=O)CCN2CCCO2)cc1 (stereo not drawn)
·	3%	·	2.5%	COc1ccc(S(=O)(=O)N(C)C[C@H]2Oc3ccc(NS(=O)(=O)c4cccs4)cc3C(=O)N([C@H](C)CO)C[C@@H]2C)cc1
?	2%	-1%	0.1%	Oc1ccc2ccccc2c1CN1CCOCC1
4	-9%	-4%	8.2%	CN(C)C(=O)CSC1c2ccccc2C(=O)N1c1ccccc1 (stereo not drawn)
·	-3%	·	?	C[C@@H](CSc1ccc(Br)cc1)CN1CC[C@H](C(C)(C)C)CCC1=O
-13	0%	7%	2.3%	Cc1nn(-c2ccccc2)c(Cl)c1/C=C1\SC(=S)NC1=O
-3	?	-11%	?	Cc1cccc(S(=O)(=O)C(C#N)c2nc3ccccc3nc2N2CCOCC2)c1 (stereo not drawn)
·	12%	0%	1.6%	Cc1cccc(NC(=O)c2cccc(NC3=NC4CS(=O)(=O)CC4S3)c2)c1 (stereo not drawn)
-1	7%	-3%	8.3%	CCC(CC)C(=O)N=C1SC2CS(=O)(=O)CC2N1CCc1ccc(OC)c(OC)c1 (stereo not drawn)
-21	-18%	20%	-1.5%	CN(C)C(=O)CSc1cccc2cccnc12
·	10%	0%	0.4%	O=C(c1ccc(F)cc1F)N1CCN(c2ccccn2)CC1
·	-3%	3%	-3.2%	CCN(CC)CCNC(=O)c1cc2c(=O)n(CC)c3ccccc3c2s1
·	-19%	·	8.7%	Cc1ccc(NC(=O)Cn2nc(C(=O)O)c3ccccc3c2=O)cc1S(=O)(=O)N1CCOCC1
-4	-12%	5%	1.2%	CCn1c(=N)n(CC(O)COc2ccc(C)cc2)c2ccccc21 (stereo not drawn)
·	-12%	-4%	-1.8%	COc1ccc(N2CCN(C(=O)c3cccc(NS(=O)(=O)c4cccc(F)c4)c3)CC2)cc1
0	-10%	-5%	-0.5%	Cc1c(Cl)cnc(NC(=O)COC(=O)C(NC(=O)c2ccco2)C(C)C)c1Cl (stereo not drawn)
2	0%	28%	-8.9%	O=C(Nc1cccc(Cl)c1)Nc1ccc(Br)cc1F
·	0%	-46%	-1.9%	CCCN1CCN(C(=O)c2cc3c(s2)-c2ccccc2OC3)CC1
11	-7%	-10%	1.9%	Cc1ccnc(NS(=O)(=O)c2ccc(NC(=O)C3CCCCC3)cc2)n1
·	-7%	4%	-5.7%	CCOCCCN(C(=O)c1snc(C(N)=O)c1N)C(C(=O)NCCC(C)C)c1ccc(F)cc1 (stereo not drawn)
-21	-7%	-6%	-6.0%	CCc1nnc(NC(=O)CSc2nnc(CNc3ccc(Cl)cc3)o2)s1
6	-5%	-4%	-3.1%	COc1cc(C2c3c(oc4ccccc4c3=O)C(=O)N2CCN2CCOCC2)cc(OC)c1OC (stereo not drawn)
-4	-17%	1%	-3.6%	O=C(O)c1ccc(N2C(=O)CC(SC(=NCc3ccc4c(c3)OCO4)Nc3ccccc3)C2=O)cc1 (stereo not drawn)
2	23%	-11%	2.8%	COC(=O)N/N=C\c1c(C)[nH]n(-c2ccccc2)c1=O
·	-4%	·	-0.8%	C=CCn1c(SC(C)C(=O)NC2CC2)nnc1-c1ccoc1C (stereo not drawn)
5	9%	-19%	1.3%	CCOC(=O)C1(CCc2ccccc2)CCN(C(=O)CN2CCOC2=O)CC1
7	?	3%	?	CC(C)COC(=O)C(C)Nc1n[nH]c(=S)[nH]c1=O (stereo not drawn)
·	-9%	-19%	0.2%	Cc1ccccc1C(=O)Nc1ccc(N(C)C)c2ccccc12
6	3%	-13%	-1.0%	O=C(Cc1ccccc1F)OCC(=O)N1CCc2ccccc21
·	0%	1%	-5.0%	O=C(CN(C(=O)CCC(=O)Nc1nccs1)c1ccc(F)cc1)NCc1ccccc1
·	1%	-57%	-3.1%	Cc1ccc(C(=O)NCCc2c[nH]c3ccccc23)c(C)c1
4	13%	-1%	-2.3%	CC(C)CCOc1ccc(NC(=O)C2OC3OC(C)(C)OC3C3OC(C)(C)OC23)cc1 (stereo not drawn)

# Later entries
GLA inh pH 4.5	Rango release inh	miR-21 reporter	Rango complex inh	Molecule
-1	13%	-1%	-0.9%	COc1ccc2oc(=O)c(C(=O)N3c4ccccc4CC3C)cc2c1 (stereo not drawn)
-2	20%	-12%	1.2%	COc1ccccc1NC(=O)/C(=N/OCc1ccc(F)cc1)C(C)=O
·	1%	·	-2.6%	C[C@H](CO)N1C[C@H](C)[C@@H](CN(C)C(=O)NC2CCCCC2)Oc2ccc(NC(=O)CCC(F)(F)F)cc2C1=O
·	23%	·	-0.9%	COc1ccccc1N1CCN(CC(=O)Nc2ccc(S(=O)(=O)N3CCCCCC3)cc2)CC1
·	2%	2%	3.2%	COc1ccc(NC(=O)CN2CCN(c3c(C)cc(C)cc3C)CC2)cc1
5	2%	1%	2.0%	O=C1CC2C(=O)NCCN2C(=NC(=O)c2ccccc2)N1 (stereo not drawn)
-8	-3%	-29%	-2.6%	COc1ccc(C(=O)Nc2scc(-c3ccc(Cl)cc3Cl)c2C(N)=O)cc1
11	19%	-12%	?	CCCOc1ccc(-c2nnn(CC(=O)N3CCCCC3)n2)cc1
·	-3%	·	-0.8%	CCCn1c(SCC(=O)N(C)CC(=O)Nc2ccc(Cl)cc2)n[nH]c1=O
·	-20%	·	0.0%	O=C(COC(=O)c1ccc2c(c1)OCCO2)NCc1ccccc1Cl
3	3%	5%	-1.2%	CN(C)C(=O)c1cnc(Sc2ncc(C(F)(F)F)cc2Cl)n1C
·	-5%	14%	2.1%	CCCC(C)c1nnc(NC(=O)CCS(=O)(=O)c2ccccc2)s1 (stereo not drawn)
·	-1%	-5%	-1.6%	COc1ccc(N(CC(=O)NC2CCCC2)C(=O)Cn2nnc(-c3ccc(C)o3)n2)cc1
-2	29%	11%	3.6%	O=C(CN1CCOCC1)Nc1cccc(C(=O)Nc2cccc(C(F)(F)F)c2)c1
-4	-18%	-3%	0.8%	Cc1ccc(NC(=O)CC2SC(=O)NC2=O)cc1 (stereo not drawn)

# Bioassay records (PubChem BioAssay)
